# Bioassay records (PubChem)
# BmaI1 enzyme – BmaI1 acyl-homoserine lactone synthase inhibition – biochemical, fluorescence intensity, with counterscreen (AID 720554) | BmaI1 enzyme assay, fluorescence intensity; hits give high values; test concentration not given here; a few actives read low; strong numbers were not always called active | inhibition, % | 12,000 compounds, 0.4% hits;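 active = both replicates within 2 robust z-scores of the inhibited control and a quiet counterscreen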;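 note: 0% = uninhibited enzyme and 100% = inhibited control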
# BmaI1 enzyme counterscreen – also measured in BmaI1 enzyme; calls as there; inhibition, %; measured here: counterscreen; design of the counterscreen not given here;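 first of two replicates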
# Numbers without * were called inactive. This is a subset; the hit share may differ from the screen's.
# The first 7 records, to show the layout:
No.	SMILES	BmaI1 enzyme counterscreen	BmaI1 enzyme
1	COc1ccc(C(=O)OCC(N)=O)cc1OC	-9	-10
2	COP1(=S)/C(=C2/N(C)c3ccccc3C2(C)C)C=NN1C (configuration not stated)	6.0*	88*
3	COc1ccccc1CN(Cc1cccs1)C(=O)C1CCCN1C(=O)c1cccs1 (configuration not stated)	2	2
4	O=C(CCCc1c[nH]c2ccccc12)Nc1ccccc1N1CCOCC1	4	12
5	COc1ccc(N2CCN(C(=O)CN3CCN(S(=O)(=O)c4ccc(C(C)(C)C)cc4)CC3)CC2)cc1	0	30
6	Cc1nc(S/C(=C/c2ccc(-c3ccc(Cl)cc3)o2)C(=O)O)n[nH]1	4	20
7	CCOC(=O)C1CCN(C(C)C(=O)Nc2ccc(C(C)C)cc2)CC1 (configuration not stated)	3	10

# Main list, from the start:
No.	SMILES	BmaI1 enzyme counterscreen	BmaI1 enzyme
1	COc1ccc(C(=O)OCC(N)=O)cc1OC	-9	-10
2	COP1(=S)/C(=C2/N(C)c3ccccc3C2(C)C)C=NN1C (configuration not stated)	6.0*	88*
3	COc1ccccc1CN(Cc1cccs1)C(=O)C1CCCN1C(=O)c1cccs1 (configuration not stated)	2	2
4	O=C(CCCc1c[nH]c2ccccc12)Nc1ccccc1N1CCOCC1	4	12
5	COc1ccc(N2CCN(C(=O)CN3CCN(S(=O)(=O)c4ccc(C(C)(C)C)cc4)CC3)CC2)cc1	0	30
6	Cc1nc(S/C(=C/c2ccc(-c3ccc(Cl)cc3)o2)C(=O)O)n[nH]1	4	20
7	CCOC(=O)C1CCN(C(C)C(=O)Nc2ccc(C(C)C)cc2)CC1 (configuration not stated)	3	10
8	O=C(NC1=NCCS1)C1CCN(S(=O)(=O)c2ccc3c(c2)OCCCO3)CC1	4	10

# Following part:
No.	SMILES	BmaI1 enzyme counterscreen	BmaI1 enzyme
9	COc1ccc(N(Cc2nc3ccccc3s2)S(=O)(=O)c2cccs2)cc1	0	6
10	NC1=C(c2nc3ccccc3s2)CC(c2ccccc2)O1 (configuration not stated)	12	17
11	O=C(O)C1CCN(C(=O)CSc2ncc(C(F)(F)F)cc2Cl)CC1	4	13
12	COc1ccc(CN2C(=O)CN(C)C2=S)cc1	5	8
13	COC(=O)c1cc(COC(=O)CCc2nc3ccccc3s2)oc1C	0	10
14	CC(Cc1nnc(SCC(=O)c2ccc[nH]2)n1N)c1ccccc1 (configuration not stated)	10	20
15	C=CCn1c(SC(C#N)Cc2ccc(C)cc2)nnc1C1COc2ccccc2O1 (configuration not stated)	-2	12
16	COc1ccccc1-c1nnc(SCC(=O)C(C)(C)C)n1Cc1ccco1	-2	5

# (list continues)
No.	SMILES	BmaI1 enzyme counterscreen	BmaI1 enzyme
17	COC(=O)c1ccccc1NC(=O)COC(=O)/C=C/c1ccco1	7	14
18	CC(=O)Nc1ccc(SCC(=O)N(C)Cc2ccco2)cc1	4	10
19	Cc1cc(NNC(=O)c2ccccc2O)c2cccc(C)c2n1	40	90
20	CCCNC(=O)C1CNc2ccccc2O1 (configuration not stated)	16	44
21	CCO/C(C)=C(\C#N)C(=O)O	5	2
22	COc1ccc(C2=NCC(CSc3nnc(-c4ccc5c(c4)OCO5)o3)S2)cc1 (configuration not stated)	13	10
23	CCCCn1nc(C(N)=O)c2ccccc2c1=O	0	12
24	O=C1CSc2ccc(C(=O)OCC(=O)N3CCCc4ccccc43)cc2N1	-4	14

# Shown in transposed form: part of the list above
[13] COC(=O)c1cc(COC(=O)CCc2nc3ccccc3s2)oc1C
[14] CC(Cc1nnc(SCC(=O)c2ccc[nH]2)n1N)c1ccccc1 (configuration not stated)
assay / compound	13	14
BmaI1 enzyme counterscreen	0	10
BmaI1 enzyme	10	20

# (list continues)
No.	SMILES	BmaI1 enzyme counterscreen	BmaI1 enzyme
25	CCn1c(=O)c(C(=O)CN2CCCCC2)c(N)n(Cc2ccccc2)c1=O	8	12
26	Cc1cc2nc(C)c(CCC(=O)O)c(C)n2n1	6	7
27	CCN1CCCC1CNC(=O)c1ccccc1Sc1ccccc1C#N (configuration not stated)	0	-1
28	Cc1cccn2c(=O)cc(CN3CCN(c4cnn(-c5ccccc5)c(=O)c4Cl)CC3)nc12	-5	8
29	COC(=O)c1ccc(C)c(NC(=O)CCn2[nH]c(=O)ccc2=O)c1	2	-3
30	Cc1csc(=O)n1CCN1C(=O)NC2(CCC(C)CC2)C1=O (configuration not stated)	6	8
31	NC(=O)COC(=O)c1cc(-c2ccccc2)c(N2CCOCC2)s1	4	12
32	CC1CCCCC1n1c(SCc2cc(=O)n3ccsc3n2)nnc1-c1cccnc1 (configuration not stated)	10	19

# Record cards, from the list above. Screens in order: BmaI1 enzyme counterscreen, BmaI1 enzyme
# Profile of NC(=O)COC(=O)c1cc(-c2ccccc2)c(N2CCOCC2)s1 = 4, 12
# Profile of Cc1csc(=O)n1CCN1C(=O)NC2(CCC(C)CC2)C1=O (configuration not stated) = 6, 8

# Following part
No.	SMILES	BmaI1 enzyme counterscreen	BmaI1 enzyme
33	O=C(c1ccc(F)cc1)C1CCN(CCn2c(=S)[nH]c3ccccc3c2=O)CC1	12	5
34	O=C(C1CC(=O)N(C2CCCC2)C1)N1CCC(c2nc3ccccc3s2)CC1 (configuration not stated)	10	19
35	O=C(Cc1ccsc1)NCC1COc2ccccc2O1 (configuration not stated)	-1	4
36	O=C(Oc1ccc(-c2nnco2)cc1)c1ccc2c(c1)S(=O)(=O)c1ccccc1C2=O	-3	6
37	Cc1cnc(C(=O)OCc2ccc(COC(=O)c3cnc(C)cn3)cc2)cn1	-8	-9
38	COc1cc(NC(=O)COn2nnc3ccc(S(C)(=O)=O)cc32)cc(OC)c1	-9	-8
39	Cc1cc(C)c(C#N)c(SCC(=O)c2cc(C)n(C3CCS(=O)(=O)C3)c2C)n1 (configuration not stated)	6	8
40	Cc1nn(CC(C)C)c(Cl)c1CNCCC(=O)N1CCCC1	4	5

# The list goes on.
No.	SMILES	BmaI1 enzyme counterscreen	BmaI1 enzyme
41	Cc1ccc(NC(=O)CN2CCSC2=O)cc1	-2	-3
42	O=C1CCC2CC1CCC2=O	0	2
43	COc1cc(OC)c(NC(C)C(=O)Nc2cccc(C#N)c2)cc1Cl (configuration not stated)	2	4
44	O=C(OCCn1ccnc1)c1ccc(-c2ccccc2)cc1	8	21
45	CCN(CC)S(=O)(=O)c1ccc(NC(=O)COC(=O)C2=NNC(=O)CC2)cc1	8	8
46	CCCn1c(N)c(C(=O)CN(C)Cc2ccc(CC)cc2)c(=O)n(C)c1=O	-2	-5
47	COc1ccc(C2N(c3ccc4c(c3)OCCO4)C(=O)C2(F)F)cc1OC (configuration not stated)	-4	-4
48	CSC1=C(C#N)C2(CCCCC2)C(C#N)=C(NC(=O)CSc2nncn2-c2ccccc2)N1	-8	16

# Remaining list, next part
No.	SMILES	BmaI1 enzyme counterscreen	BmaI1 enzyme
49	CCOC(=O)CCc1nnc(-c2ccncc2)o1	-1	2
50	Cc1cc(-n2c(C)cc(CNCc3nc4ccccc4[nH]3)c2C)no1	-1	10
51	CC1CCC(C(C)C)C(OC(=O)CSc2nnnn2C)C1 (configuration not stated)	10	12
52	CC(C)c1ccccc1N=C1SCCN1C1CCS(=O)(=O)C1 (configuration not stated)	4	8
53	Cn1nnnc1SCCOc1ccc(C#N)cc1	12	12
54	Cc1ccccc1-n1nnnc1SCC(C)C	1	10
55	CCC(COC(=O)c1cc(OC)c(OC)c(OC)c1)(c1ccccc1)N(C)C (configuration not stated)	3	2
56	CCc1nc2ccccc2c(C)c1C(=O)O	-8	-2

# Next part:
No.	SMILES	BmaI1 enzyme counterscreen	BmaI1 enzyme
57	Cc1nn(CCC#N)cc1C=C1C(=O)NC(=O)NC1=O	6	8
58	CC(=O)Nc1ccc(C2C3=C(CCCC3=O)Nc3c2c(C)nn3-c2nc3ccccc3s2)cc1 (configuration not stated)	-5	-3
59	Cc1nn(-c2ccccc2)c(C)c1NC(=O)COC(=O)c1ccccc1	4	10
60	CCOc1ccc(O)c(C=NC2CCCC2)c1	2	2
61	COc1ccc(CNC(=O)CSC(C)(C)C)cc1OC	1	6
62	CN(Cc1ccccc1)C(=O)c1cccc(F)c1	16	16
63	COC(=O)c1cc(CNCC2(N3CCCCC3)CCCCC2)oc1C	10	16
64	Cc1ccc(NC(=O)COc2cn(-c3ccccc3)nn2)cc1C	0	6

# (cont.)
No.	SMILES	BmaI1 enzyme counterscreen	BmaI1 enzyme
65	CC(=O)OCc1ccc(C(=O)Nc2nccs2)cc1	11	8
66	O=C(CNC(=O)c1ccccc1F)OC1CCOC1=O (configuration not stated)	10	16
67	COC(=O)C1CC2C=CC1C2 (configuration not stated)	4	16
68	N=C1/C(=C2\Nc3ccccc3S2)CC(=O)N1Cc1ccco1	44	-14
69	COc1ccc(S(=O)(=O)N2CCc3ccccc32)cc1C(=O)NCC(c1ccco1)N1CCCC1 (configuration not stated)	2	13
70	Cc1cc(/C=N/N2CCN(C)CC2)c(C)n1-c1ccc(Cl)cc1	-23	4
71	O=C(CSc1nncs1)N1CCN(C(=O)CSc2nncs2)CC1	20	16
72	COc1ccc(C(=O)N2C(=O)c3ccc(N)cc3C2=O)cc1	9	10

# Following part:
No.	SMILES	BmaI1 enzyme counterscreen	BmaI1 enzyme
73	COc1ccc(Cl)cc1NC(=O)COC(=O)C12CC3CC(CC(O)(C3)C1)C2	12	42
74	CN1/C(=C\C(=O)CN2C(=O)NC3(CCc4ccccc43)C2=O)C(C)(C)c2ccccc21 (configuration not stated)	0	16
75	CCN(C(=O)CSc1nnc(C(F)(F)F)n1C)C1=CCCC1	2	-2
76	CCOc1ccc2ccc(=O)oc2c1	8	10
77	CC(C(=O)OCC(=O)c1ccc2c(c1)OCCO2)N1C(=O)c2ccccc2C1=O (configuration not stated)	2	16
78	Cc1ccccc1-c1nnn(CC(=O)N2N=C(c3ccc(Cl)cc3)CC2c2ccco2)n1 (configuration not stated)	-4	-1
79	CC(OC(=O)c1ccccc1NS(=O)(=O)c1ccc2[nH]c(=O)[nH]c2c1)C(=O)N1CCCCC1 (configuration not stated)	3	3
80	Cc1cc(/C=N/n2cnc3c(cnn3-c3ccccc3)c2=O)c(C)n1CC(C)C	1	-1

# The list goes on:
No.	SMILES	BmaI1 enzyme counterscreen	BmaI1 enzyme
81	CC(C)NC(=O)C(C)N1CCN(S(=O)(=O)c2ccc3ccccc3c2)CC1 (configuration not stated)	-6	13
82	COc1ccc(-c2nnc(SCCCn3c(=O)[nH]c4ccccc43)o2)cc1	5	14
83	Cc1ccc(OCCSc2nc(O)cc(=O)n2C2CCCC2)cc1	-2	4
84	O=C(CC1Sc2ccccc2NC1=O)OCc1nnc(-c2ccccc2)o1 (configuration not stated)	12	21
85	CCN(CC)c1ccc(NC(=O)CN(C)Cc2ccccc2C)cc1	-10	42
86	CC(C)Cn1c(=S)[nH]c2cc(Cl)ccc21	12	72
87	CCOC(=O)c1sc(Nc2ccc(C)cc2)c(C(=O)NCc2ccco2)c1N	26	50
88	O=C(CN1CCSc2ccccc21)NCc1ccccc1	34	20

# Filtered by structure: the entries above with a thiophene ring, fused or not.
No.	SMILES	BmaI1 enzyme counterscreen	BmaI1 enzyme
3	COc1ccccc1CN(Cc1cccs1)C(=O)C1CCCN1C(=O)c1cccs1 (configuration not stated)	2	2
9	COc1ccc(N(Cc2nc3ccccc3s2)S(=O)(=O)c2cccs2)cc1	0	6
31	NC(=O)COC(=O)c1cc(-c2ccccc2)c(N2CCOCC2)s1	4	12
35	O=C(Cc1ccsc1)NCC1COc2ccccc2O1 (configuration not stated)	-1	4
87	CCOC(=O)c1sc(Nc2ccc(C)cc2)c(C(=O)NCc2ccco2)c1N	26	50

# Next section:
No.	SMILES	BmaI1 enzyme counterscreen	BmaI1 enzyme
89	CC(=O)Nc1cccc(C(=O)OC(C)C(=O)NC2(C#N)CCCCC2)c1 (configuration not stated)	10	15
90	Cc1nn(CC(=O)c2cc(C)n(CC(F)(F)F)c2C)c(=O)c(C#N)c1C	1	4
91	O=C(N/N=C/c1c(Sc2nnnn2-c2ccccc2)nc2ccccn2c1=O)c1ccccc1	5	14
92	CCCCn1c(=O)[nH]c(=O)c2c1nc(COC(=O)c1ccccc1)n2CCC(C)C	6	18
93	CN1CCC2=C1/C(=N\OC(=O)c1ccccc1)SC2=Nc1ccccc1	14	14
94	O=C(Cc1n[nH]c(=O)c2ccccc12)Nc1ccc2c(c1)OCCO2	-12	-6
95	COc1ccccc1CC1(C)NC(=O)N(CC(=O)c2cc(C)n(Cc3ccco3)c2C)C1=O (configuration not stated)	2	12
96	Cc1ccc(/C=C(\C#N)C(=O)C(C)(C)C)o1	8	11

# (listing goes on)
No.	SMILES	BmaI1 enzyme counterscreen	BmaI1 enzyme
97	O=C(Nc1ccc(Oc2ncnc3sc4c(c23)CCCCC4)cc1)c1ccco1	4	20
98	C=CCOc1ccccc1CN(C(=O)c1ccco1)c1ccc2c(c1)OCO2	4	19
99	CC1CC(C)CN(S(=O)(=O)c2ccc(C(=O)OCc3nnc(-c4ccc(Cl)cc4)o3)cc2)C1 (configuration not stated)	10	6
100	COc1ccc2oc(C(=O)OCc3cc(=O)oc4cc(C)ccc34)c(C)c2c1	12	21
101	COc1cc(OC)c(C(=O)OC2CCCC2=O)cc1OC (configuration not stated)	3	4
102	CCCCn1c(SC2CCCCC2=O)nc2cc(S(N)(=O)=O)ccc21 (configuration not stated)	4	6
